Source: PubChem
E coli growth: inhibitors of Escherichia coli growth; OD600, 23 h; active compounds read low; OD600 absorbance (concentration not given with the values); hit rate 0.21% among 330,000; AID 1053175;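 active = OD600 absorbance below the run mean of sample wells minus 3.6 SD, in any replicate, cut at about 0.56 in these data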;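 also: stock transfer was 300 nL into about 60 µL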
UCH37 DUB inh: human UCH37 deubiquitinating enzyme inhibition | Q9Y5K5 | purified proteasome/UCH37, Ub-AMC cleavage fluorescence | inhibition, % (concentration not given with the values) | hit rate 0.33% among 330,000;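 active = mean of two replicates above 20%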;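 also: 0% = compound-free wells with enzyme and 100% = wells lacking proteasome; stock transfer was 100 nL into about 20 µL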
Target sequence (Q9Y5K5 whole entry, looked up): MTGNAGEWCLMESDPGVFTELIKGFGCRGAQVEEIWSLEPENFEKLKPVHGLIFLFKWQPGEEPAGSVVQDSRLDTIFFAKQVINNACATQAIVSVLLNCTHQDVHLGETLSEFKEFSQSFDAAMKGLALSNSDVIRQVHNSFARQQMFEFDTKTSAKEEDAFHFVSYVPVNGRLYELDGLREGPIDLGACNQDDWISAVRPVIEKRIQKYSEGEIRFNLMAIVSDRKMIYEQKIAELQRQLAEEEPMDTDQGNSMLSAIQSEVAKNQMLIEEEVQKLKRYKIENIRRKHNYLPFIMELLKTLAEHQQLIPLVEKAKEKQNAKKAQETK
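Test system – human UCH37 enzyme supplied as purified proteasome complex · Incubation – 30 min preincubation with enzyme, 25 min cleavage at room temperature · Detection – AMC fluorescence from Ub-AMC cleavage, excitation 355 nm, emission 460 nm · Benchmarks – no-proteasome wells (full inhibition) and compound-free wells (no inhibition)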
A1 inh: inhibitors of the anti-apoptotic protein A1, read as caspase activation; AID 2462; MEF A1-2A-BIM cells, Caspase-Glo 3/7 luminescence, 3 h; percent of clofoctol response, vehicle zero; caspase activation, % (no concentration beside the values); hit rate 0.066% among 330,000;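 active = over half of replicate activation scores above 10%, or exactly half above 10 with the replicate mean above 10; inconclusive = replicate mean below 10 yet half the replicates above 10; inactive = over half of replicates below 10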;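 also: wells of about 30 µL received 50 nL stock; many hits fall short of the cut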
Beta2AR agonist: activates human beta-2 adrenergic receptor causing internalization; Am2.2-beta2AR cells, FAP receptor internalization, flow cytometry; reference of the scale not given here; response, % (concentration not given with the values); hit rate 0.43% among 340,000; AID 504454;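 active = response above a set limit, near 3 SD of response in nonfluorescent compounds, cut at about 42% in these data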;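 also: stock transfer was 100 nL into about 11 µL; a reference agonist was the positive control; negative values mostly stem from fluorescent compounds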
LANA-H2A inh: blocks KSHV LANA binding to histone H2A/H2B; hit rate 0.6% among 320,000; inhibition, % (concentration not given with the values); Q9QR71; cell-free LANA-H2A/H2B peptide, fluorescence polarization; in the data active = inhibition mostly above about 10%, no sharp cut-off; inactive = mostly below about 6.7%;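 also: stock transfer was 7.5 nL into about 10 µL; 0% = median of vehicle wells and 100% = median of positive control wells; one replicate is shown; the record names a cut of 25% in any replicate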
HNF4A DNA FP: change in binding of human HNF4 alpha to DNA; P41235; activity change, % at 10 µM; HNF4a-FITC DNA binding, fluorescence polarization, 1 h; hit rate 0.3% among 360,000; in the data active = activity change above about 30%, passing the limit was not always enough;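 also: controls were the assay level and a saturating level of protein; the project sought stronger binding though the title names inhibitors; some compounds called inactive have numbers as strong as hits; positive values seem to mean higher polarization but the record does not say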
Target sequence (P41235 whole entry, looked up): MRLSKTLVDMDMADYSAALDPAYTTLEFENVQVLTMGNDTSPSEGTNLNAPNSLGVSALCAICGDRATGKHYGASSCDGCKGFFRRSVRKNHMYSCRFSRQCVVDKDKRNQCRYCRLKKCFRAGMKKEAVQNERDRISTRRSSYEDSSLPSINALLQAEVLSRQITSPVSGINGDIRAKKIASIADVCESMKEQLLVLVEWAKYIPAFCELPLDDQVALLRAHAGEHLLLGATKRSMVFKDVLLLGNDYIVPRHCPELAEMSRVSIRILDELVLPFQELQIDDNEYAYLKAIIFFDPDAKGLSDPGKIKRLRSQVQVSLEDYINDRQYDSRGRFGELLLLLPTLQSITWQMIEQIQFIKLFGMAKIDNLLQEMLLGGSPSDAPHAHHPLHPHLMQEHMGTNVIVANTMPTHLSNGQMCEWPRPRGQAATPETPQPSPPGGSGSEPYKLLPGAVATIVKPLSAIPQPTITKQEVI
Vif A3G: inhibitors of Vif binding to APOBEC3G peptide, primary screen, biochemical, TR-FRET, GST-Vif 1-94, biotin-A3G peptide, dose response retest (AID 1117319); TR-FRET GST-Vif / biotin-A3G peptide binding; higher % means a stronger effect; test concentration not given here; strong numbers were not always called active; inhibition, %, or IC50 in µM where a hit was titrated; hit rate 0.57% among 260,000;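 active = above the screen mean plus three standard deviations and confirmed in dose response; inconclusive = results disagree or hit not tested in dose response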;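 also: Vif residues 1-94 fused to GST binding biotinylated APOBEC3G peptide 110-148; 0% = full assay without inhibitor and 100% = GST in place of GST-Vif; retest series ran down from 100 µM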
Numbers without * were called inactive; u = inconclusive; x = not tested or not shown; & = joins results of further samples.

Below each SMILES: A1 inh, E coli growth, HNF4A DNA FP, Vif A3G, Beta2AR agonist, UCH37 DUB inh, LANA-H2A inh
COc1ccc(CC(=O)Nn2c(-c3ccccc3)nc3ccccc3c2=O)cc1
    -0.1, 0.67, -0.3, x, 0, 2.2, 6.5
CCOc1cc(S(=O)(=O)Nc2ncn[nH]2)ccc1Br
    -0.6, 0.71, 2.2, x, -3, 3.7, -2.8
COc1ccccc1CNC(=O)Cn1ccsc1=N
    -1.0, 0.69, -0.1, x, -10, 3.8, -6.1
CCN(C#N)c1nc(NC(C)C)nc(NC(C)(C)C)n1
    -0.3, 0.7, 0.7, x, 1, -0.2, 4.2
COC(=O)c1ccc(C(=O)OC)c(NC(=S)N2CCN(c3ccccc3)CC2)c1
    -0.5, 0.65, -3.9, 26%, 14, -4.7, 0.7
Cc1occc1-c1nnc(SCC(=O)N2c3ccccc3CCc3ccccc32)n1C
    1.1, 0.69, 3.3, -2%, -7, 3.9, -3.9
Cc1cccc(NC(=O)Cc2ccc(NC3=NC4CS(=O)(=O)CC4S3)cc2)c1 (stereo unspecified)
    x, 0.78, 3.8, x, 2, 3.4, -4.1
O=C(CCc1nnc(Cc2ccc(-c3ccccc3)cc2)o1)NCCc1cccnc1
    0.4, 0.67, 26, 14%, -11, 1.9, 3.2
COc1ccccc1N1CCN(C(=O)c2ccc3c(c2)CCN3S(=O)(=O)c2ccccc2)CC1
    0.4, 0.7, 4.8, 5%, 13, 3.5, -0.8
COc1ccc(NC(=S)N2CCN(Cc3ccco3)CC2)c(OC)c1
    -1.3, 0.59, 5.9, x, 3, 1.1, 7.1
O=C(Cn1cnc2ccccc2c1=O)N1CCN(c2ccccc2)CC1
    0.4, 0.68, -0.9, 3%, -4, 1.5, 1.2
Cc1cc(C)n(CC(=O)NC2CCCc3c2cnn3-c2ccc(C)c(C)c2)n1 (stereo unspecified)
    -0.9, 0.71, 3.5, x, -4, 5.8, -6.3
Cc1ccc(C)c(CSc2nc3[nH]ncc3c(=O)[nH]2)c1
    0.1, 0.71, -2.2, -10%, -6, 1.5, 0.6
O=C(Nc1ccccc1N1CCN(c2ccccc2)CC1)c1ccccc1F
    0.0, 0.69, -1.8, 10%, 5, 4.9, -1.2
CC(C)N(Cc1cnn(C)c1)Cc1nc(Cc2ccccc2Cl)no1
    0.5, 0.71, 0.1, u, -5, 2.6, -11
CC1CC(=O)N(c2ccc(NCc3ccc(Cl)cc3)c([N+](=O)[O-])c2)C1=O (stereo unspecified)
    -0.6, 0.63, -2.7, 18%, 0, 2.6, 1.9
COC(=O)CSc1nnc(-c2sc3ccccc3c2Cl)o1
    0.1, 0.67, -2.0, -3%, 2, -2.9, -2.3
COc1ccc(-c2c(C#N)c(N)nc3sc(C(=O)c4ccc(C)cc4)c(N)c23)cc1
    0.2, 0.66, 75*, -97%, 2, -54, x
O=C(NCCO)c1ccc(Oc2ccc(C(F)(F)F)cc2[N+](=O)[O-])cc1
    -0.6, 0.7, 4.5, -8%, -7, 1.3, 5.6
CCOC(=O)c1sc(NC(=O)CSc2n[nH]c(-c3ccncc3)n2)c(C#N)c1C
    -1.7, 0.72, 0.9, -5%, 6, 2.3, 1.8
COc1cc(-n2c(=O)c3ccccc3n(Cc3cccc(F)c3)c2=O)cc(OC)c1OC
    -0.9, 0.64, -6.1, -9%, 7, 7.2, 3.3
CN(C)S(=O)(=O)c1ccc(N2CCCC2)c(C(=O)N2CCN(c3ccc([N+](=O)[O-])cc3)CC2)c1
    -0.1, 0.66, -0.5, x, 3, 8.5, -5.0
Cc1onc(-c2c(Cl)cccc2Cl)c1-c1nc2cc(Cl)ccc2c(=O)o1
    x, 0.63, -1.2, u, 8, -1.9, x
CC(C)c1nc2sc3c(c2c(=O)[nH]1)CC(C)(C)OC3
    -0.3, 0.68, 2.9, 1%, -3, 6.6, 3.4
COc1ccc(C(CNC(=O)c2cccc(S(=O)(=O)N3CCCC(C)C3)c2)N(C)C)cc1 (stereo unspecified)
    1.1, 0.66, -4.4, 5%, 33, 0.4, -2.6
Cc1ccc(-c2nc3ncccc3o2)cc1NC(=O)c1ccco1
    2.3, 0.72, 0.0, x, -9, 0.6, 5.4
CCOC(=O)C(NCc1ccccc1OC)(NC(=O)c1ccccc1)C(F)(F)F (stereo unspecified)
    -2.3, 0.68, -0.9, -8%, -10, -1.1, 0.6
COC(=O)/C=C/c1ccc(-n2cncn2)cc1
    0.2, 0.66, 1.2, 1%, 6, 3.9, 2.2
C=CCNC(=O)C1CCN(c2ccc(S(=O)(=O)N3CCOCC3)cc2[N+](=O)[O-])CC1
    -1.6, 0.64, 0.0, u, 18, 5.0, -1.9
CCN1c2ccccc2NC2N=C(OC)C(c3ccccc3)C21 (stereo unspecified)
    0.5, 0.66, 17, 19%, 5, 1.4, 1.8

Just E coli growth, LANA-H2A inh and HNF4A DNA FP, for 3 of the compounds above:
| SMILES | E coli growth | LANA-H2A inh | HNF4A DNA FP |
| --- | --- | --- | --- |
| C=CCNC(=O)C1CCN(c2ccc(S(=O)(=O)N3CCOCC3)cc2[N+](=O)[O-])CC1 | 0.64 | -1.9 | 0.0 |
| CCN1c2ccccc2NC2N=C(OC)C(c3ccccc3)C21 (stereo unspecified) | 0.66 | 1.8 | 17 |
| Cc1onc(-c2c(Cl)cccc2Cl)c1-c1nc2cc(Cl)ccc2c(=O)o1 | 0.63 | x | -1.2 |

The listing continues:
Below each SMILES: A1 inh, E coli growth, HNF4A DNA FP, Vif A3G, Beta2AR agonist, UCH37 DUB inh, LANA-H2A inh
Cc1ccc(NC(=O)C2(NC(=O)c3ccccn3)CCCCC2)cc1Br
    2.0, 0.73, 8.4, 18%, 11, -2.5, -0.8
COc1ccc(OC)c(NC(=O)CS(=O)(=O)Cc2ccccc2)c1
    x, 0.69, 0.6, -3%, 8, 1.4, x
CC(Oc1ccccc1)C(=O)Nc1nnc(S(=O)(=O)N(C)c2ccccc2)s1 (stereo unspecified)
    u, 0.72, -6.0, -6%, 5, 0.3, 0.4
c1ccc(CN2CCN(Cc3c[nH]c4ccccc34)CC2)cc1
    0.3, 0.67, 2.2, x, 4, 4.6, -0.9
Cc1ccc(-n2c(C)cc(/C=C3\SC(=O)NC3=O)c2C)cc1
    -1.2, 0.72, 4.7, -7%, 7, 4.1, 4.8
O=C(COC(=O)c1ccc(F)c(S(=O)(=O)N2CCOCC2)c1)NCCc1ccccc1
    -0.7, x, -0.6, x, 1, x, -3.3
COc1ccc(CNC(=O)CCn2cccc2)cc1
    0.7, 0.72, -0.2, 0%, 1, 3.3, -4.9
CC(C)(CNC(=O)c1ccc(NS(=O)(=O)c2ccc(F)c(F)c2)cc1)N1CCOCC1
    1.4, 0.69, 3.5, 1%, 4, 2.5, -5.2
CC(=O)N1CCN(C(=O)c2ccc(NS(=O)(=O)c3ccc4c(c3)OCCO4)cc2)CC1
    1.0, x, 2.1, x, 0, x, -8.9
COc1ccc2c(c1)CCCN2S(=O)(=O)c1ccc(Cl)cc1
    0.4, 0.71, 1.9, x, 28, 4.7, -8.9
COc1ccc2c(c1)CCCC2=O
    x, 0.68, 1.7, -3%, -3, -1.7, x
O=C(c1ccco1)N1CCN(C(=O)c2[nH]ncc2[N+](=O)[O-])CC1
    0.5, 0.68, -4.9, x, -9, 2.3, 4.6
COc1ccccc1-c1nnc(SCC(=O)N2CCCC2)o1
    0.3, 0.65, 0.8, x, 0, 4.0, -5.7
CCCCSc1cc(C)nc(N)n1
    -0.9, 0.64, -1.3, 10%, 3, 5.1, -1.9
O=S(=O)(Cc1nnnn1-c1ccc(Br)cc1)c1ccc(F)cc1
    0.2, 0.73, 5.8, x, 8, 4.5, 0.6
Cc1ccc(SCC(=O)NCCN2C(=O)CSC2=O)c(C)c1
    1.6, 0.7, -3.3, 17%, 8, 0.7, -0.6
CCNc1nc(N)nc(Oc2ccc(OCc3ccccc3)nn2)n1
    0.1, 0.72, -1.8, 2%, 8, 5.0, -4.7
COc1cc(/C=C2\SC(=O)N(Cc3ccc(F)cc3)C2=O)cc([N+](=O)[O-])c1O
    x, 0.72, 0.2, 12%, 5, 20, x
Cc1ccc(S(=O)(=O)c2nnn3c2nc(N2CCOCC2)c2ccccc23)c(C)c1
    1.4, 0.71, -2.5, u, -6, -9.1, 1.2
O=C(NCCCN1CCOCC1)c1csc2c1CCCC2
    1.4, 0.73, -0.4, -2%, -1, 2.5, -11
O=C(NNC(=O)C1CC1c1ccccc1)c1ccccc1F (stereo unspecified)
    0.7, 0.64, 3.7, -12%, 2, 0.0, 0.3
COc1ccccc1C1C2=C(N=C3SCC(=O)N31)c1ccccc1CC2 (stereo unspecified)
    -0.2, 0.81, -0.7, 4%, -4, 2.2, -2.5
CCCC(c1nnnn1CCOC)N1CCN(c2cccc(OC)c2)CC1 (stereo unspecified)
    x, 0.73, -1.4, -4%&26%, -10, 2.5, x
O=C(NCc1ccccc1)c1nccnc1CO
    1.4, 0.66, -0.9, -7%, -4, 0.5, 2.0
COc1cc(C(C(=O)NC2CCCC2)N(CCO)C(=O)Cn2nnc(-c3ccc(C)o3)n2)ccc1O (stereo unspecified)
    -0.1, 0.68, 2.5, 6%, 4, -0.5, -4.4
CCn1c(CNc2ccc(Cl)cc2)nnc1SCC#N
    0.7, 0.69, -2.3, 1%, -9, 3.5, 3.3
COc1cccc(NC(=O)CN(C)C(=O)c2ccc(COc3ccccc3)cc2)c1
    -3.0, 0.66, 1.9, -4%, 1, 1.5, -0.6
COc1ccc(NC(=O)c2ccc3c(c2)C(=O)N(Cc2cccnc2)C3=O)cc1
    -1.1, 0.75, -2.7, 7%, -5, -2.9, 1.3
Cc1cccc(NC(=O)NCC(c2ccco2)N2CCCCC2)c1 (stereo unspecified)
    -1.0, 0.7, 0.7, 8%, 1, 1.8, -11
Fc1cccc(-n2c(-c3cccs3)nc3nc4ccccc4nc32)c1
    -0.5, 0.69, x, -11%, x, -178, -0.9
O=C(NCCCN1CCOCC1)/C(=C/c1cccnc1)NC(=O)c1ccccc1
    -0.7, 0.67, -3.8, 10%, -1, 3.1, 2.3
O=C(N/N=C/c1ccc2nccnc2c1)c1ccc(Br)cc1
    0.5, x, 3.7, -239%, -1, x, -0.6
Cc1cccc(N=C2NC(=O)CS2)c1C
    0.5, 0.72, 0.2, 12%, -1, -0.7, 4.1
C=CCc1cccc(CNn2cnnc2)c1O
    0.6, 0.67, 0.7, x, 0, -1.1, 3.6
COc1ccc(-c2cc(C(F)(F)F)nc(-n3cc(Cl)cn3)n2)cc1
    -0.3, 0.66, 0.0, -5%, -11, -70, 1.4
CCC(C)Sc1nc2c(c(=O)n1C)SC(C)C2 (stereo unspecified)
    0.5, 0.76, -0.7, 5%, 1, 7.0, -3.7
Cn1cc(CNC(=O)c2cc(COc3ccc4c(c3)CCCC4)on2)cn1
    -0.3, 0.7, -1.7, x, -1, 2.2, -5.5
CCn1c(CCNC(=O)c2ccc(Cl)c(Cl)c2)nnc1SCCOc1ccc(OC)cc1
    -0.3, 0.7, -3.1, -3%, 6, 5.2, -3.7
Cn1cc(CNC(=O)C2CCCCC2)cn1
    -0.4, 0.66, -2.0, 2%, -2, 4.8, -1.6
COc1ccc(C(=O)NCCn2ccc3ccccc32)cc1
    -2.4, 0.8, 0.7, -1%, 0, 1.2, -1.0
Cc1ccc(NC(=O)COC(=O)c2nn(C)c(=O)c3ccccc23)cc1F
    0.9, 0.69, 4.1, x, 6, 2.3, -3.1
CCOc1ccc2nc(Cl)c(CN(C(C)=O)C3CCCCC3)cc2c1
    0.3, 0.66, 1.3, 9%, -4, -2.9, 1.4
O=C(Nc1c2c(nn1-c1ccc(F)cc1)CS(=O)C2)c1ccc2c(c1)OCO2 (stereo unspecified)
    -0.6, 0.67, -2.2, -6%, -9, 1.5, -4.2
